From PubChem
Beta cell apopt: blocks beta cell apoptosis; INS-1E cytokine-induced death, ATP luminescence, 48 h; percent of positive-control rescue, neutral wells zero; actives 0.8% (n = 300,000); protection from apoptosis, % (test concentration not listed);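 active means all replicates at 75% or more, or half of them and the mean; inconclusive means half reach 75% but not the mean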;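 further: 0% = cytokine-treated negative control wells and 100% = positive control rescue; higher means more ATP so stronger rescue from cytokine killing; wells of about 40 µL received 100 nL stock; the first replicate is given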
Vif TR-FRET: inhibitors of Vif binding to APOBEC3G peptide, primary screen, biochemical, TR-FRET, GST-Vif 1-94, biotin-A3G peptide, dose response retest (AID 1117319) | actives 0.57% (n = 260,000) | inhibition, %; hits with a dose series show IC50 in µM | TR-FRET GST-Vif / biotin-A3G peptide binding; higher % means a stronger effect; test concentration not given here; strong numbers were not always called active;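 active means above the screen mean plus three standard deviations and confirmed in dose response; inconclusive means results disagree or hit not tested in dose response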;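 further: Vif residues 1-94 fused to GST binding biotinylated APOBEC3G peptide 110-148; 0% = full assay without inhibitor and 100% = GST in place of GST-Vif; retest series ran down from 100 µM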
MLL AF4-AF9 inh: MLL-AF4/AF9 protein interaction inhibition; AlphaScreen, biotin-AF4 peptide binding to FLAG-AF9; inhibition, % at 10 µM; actives 0.47% (n = 350,000);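 active means every replicate reaching a set inhibition limit, whatever the replicate mean, cut at about 25% in these data; inconclusive means mean inhibition reaches that limit but some replicates miss it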;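 further: 0% = plate neutral control median and 100% = total signal loss; the record names both 10 and 1 µM as test concentration; the first replicate is given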
Target sequence (P42568 whole entry, looked up): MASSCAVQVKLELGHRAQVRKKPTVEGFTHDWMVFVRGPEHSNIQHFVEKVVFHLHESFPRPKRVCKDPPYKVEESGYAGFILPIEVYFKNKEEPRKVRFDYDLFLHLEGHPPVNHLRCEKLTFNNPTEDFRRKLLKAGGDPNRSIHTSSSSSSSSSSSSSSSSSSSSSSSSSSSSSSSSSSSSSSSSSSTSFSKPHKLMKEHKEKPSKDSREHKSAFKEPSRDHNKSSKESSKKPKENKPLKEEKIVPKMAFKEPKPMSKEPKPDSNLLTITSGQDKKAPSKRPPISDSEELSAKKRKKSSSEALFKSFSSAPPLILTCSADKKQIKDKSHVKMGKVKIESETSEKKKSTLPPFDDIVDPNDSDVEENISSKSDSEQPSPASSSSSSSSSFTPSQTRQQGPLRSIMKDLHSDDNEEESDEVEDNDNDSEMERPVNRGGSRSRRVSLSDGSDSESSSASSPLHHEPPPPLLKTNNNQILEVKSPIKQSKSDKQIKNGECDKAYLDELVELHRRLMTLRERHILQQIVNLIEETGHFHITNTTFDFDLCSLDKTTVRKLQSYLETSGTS
Calb FLC: C. albicans growth modulation with fluconazole | C. albicans CaCi-2 (fluconazole-resistant clinical isolate) + fluconazole, Alamar Blue growth, 48 h | actives 0.57% (n = 300,000) | growth inhibition, % (test concentration not listed) | AID 1979;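 active means most replicates above 75%; inconclusive means exactly half above 75%; inactive means most below 75%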;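 further: all wells also contain fluconazole at 8 µg/ml as a sub-toxic cotreatment; 0% = median of DMSO wells and 100% = median of geldanamycin control wells; wells of about 8 µL received 7.5 nL stock; the first replicate is given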
T cruzi repl: T. cruzi replication inhibition. T. cruzi beta-gal in NIH3T3, luminescence, 90 h. inhibition, % (concentration not given with the values). actives 1.4% (n = 300,000). AID 1885;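 active means mean inhibition across valid replicates above about 55%, limit read from the data; inconclusive means mean below that limit but half or more replicates reach it; inactive means mean below it, under half of replicates reach it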;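 further: signal also drops with host cell toxicity which is not excluded here; 0% = plate median of DMSO wells and 100% = zero luminescence signal; higher percent means less beta-gal luminescence so fewer parasites; stock transfer was 50 nL into about 50 µL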
Bfl-1 A1 inh: inhibitors of the anti-apoptotic protein A1, read as caspase activation; MEF A1-2A-BIM cells, Caspase-Glo 3/7 luminescence, 3 h; percent of clofoctol response, vehicle zero; caspase activation, % (no concentration beside the values); actives 0.066% (n = 330,000); AID 2462;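 active means over half of replicate activation scores above 10%, or exactly half above 10 with the replicate mean above 10; inconclusive means replicate mean below 10 yet half the replicates above 10; inactive means over half of replicates below 10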;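 further: wells of about 30 µL received 50 nL stock; many hits fall short of the cut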
RanGTP-Impb inh: disruptors of Ran-importin-beta complex formation – biochemical, FRET, CFP-Ran, YFP-importin-beta, homogeneous, primary screen; AID 2216; inhibition, % (test concentration not listed); cell-free CFP-Ran/YFP-importin-beta FRET ratio; actives 1.1% (n = 300,000);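 active means most replicates above 15%; inconclusive means exactly half above 15%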;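 further: 0% = DMSO wells and 100% = Ran loaded with GDP instead of GTP; wells of about 40 µL received 100 nL stock; the first replicate is given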
LANA-H2B inh: blocks KSHV LANA binding to histone H2A/H2B | AID 2629 | inhibition, % (test concentration not listed) | cell-free LANA-H2A/H2B peptide, fluorescence polarization | actives 0.6% (n = 320,000) | Q9QR71; in the data active means inhibition mostly above about 10%, no sharp cut-off; inactive means mostly below about 6.7%;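 further: stock transfer was 7.5 nL into about 10 µL; 0% = median of vehicle wells and 100% = median of positive control wells; one replicate is shown; the record names a cut of 25% in any replicate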
* hit, by the source's call; i = inactive; ? = inconclusive; . = not tested or not shown. Compounds as they come; overall some 4.3% were active at least once.

SMILES	Beta cell apopt	Vif TR-FRET	MLL AF4-AF9 inh	Calb FLC	T cruzi repl	Bfl-1 A1 inh	RanGTP-Impb inh	LANA-H2B inh
Cc1cc(/C=C2\NC(=O)NC2=O)c(C)n1-c1cccnc1	-1	12%	-0.2	-6	-1	-1.5	0.5	-1.8
Cc1cc[n+](CC(=O)c2ccccc2)c2ccccc12	117*	17%	2.9	15	15	0.0	-2.8	3.5
Cc1ccc(S(=O)(=O)N(C)/N=C/c2ccc(C(=O)O)cc2)cc1	-6	-9%	-1.1	-5	2	0.1	0.6	4.4
COc1ccc(/C=C2\SC(=S)N(CCCC(=O)Nc3ccc(O)cc3)C2=O)cc1	2	-8%	.	5	23	-0.9	3.9	0.9
COc1ccc(N(C(=O)c2ccco2)C(C(=O)NC2CCCC2)c2cccs2)c(OC)c1 (stereo not drawn)	-3	.	0.3	-3	25	0.9	2.2	-1.9
O=C(Nc1c(S(=O)(=O)c2ccc(Cl)cc2)csc1Br)c1ccccc1Cl	0	1%	1.2	-4	1	-0.5	-4.4	4.3
O=C(CC1C(=O)NCCN1Cc1cccc(F)c1F)NCCCC1CCCC1 (stereo not drawn)	-8	-1%	-2.7	-13	11	1.3	-0.7	0.8
CCCN(CCC)C(=O)c1cn(C)c2ccc(S(=O)(=O)N3CCCC3)cc2c1=O	-2	2%	-1.3	5	-6	0.2	3.5	-6.0
Cc1ccc(S(=O)(=O)N2CCOCC2)cc1C(=O)NCCCn1ccnc1	-2	-1%	.	-3	-2	-0.1	1.2	1.1
CCc1ccccc1NC(=O)CNC(=O)c1cc(C2CC2)nc2c1cnn2C(C)C	-1	4%	0.9	.	.	-0.6	.	2.0
O=c1sc(N2CCN(c3ccccc3F)CC2)nc2ccsc12	0	-45%	1.1	0	18	-1.3	9.5	-3.7
CCOC(=O)N1CCC(NC(=O)Cn2nc(Cc3ccncc3)c3ccccc3c2=O)CC1	3	3%	-12	23	1	-0.4	-0.6	-0.6
Fc1ccc(NC(=S)Nc2cccnc2)cc1Cl	-2	.	0.7	6	6	1.2	-1.7	-3.0
COc1ccc(C2SCC(=O)N2c2nnc(C34CC5CC(CC(C5)C3)C4)s2)cc1 (stereo not drawn)	-2	.	2.7	-8	17	0.4	3.0	-1.5
Cn1c(SCc2ccccc2)nnc1C1CCCNC1 (stereo not drawn)	-2	1%	.	8	-6	-0.9	?	3.5
COc1ccc(C2SCCN2S(=O)(=O)c2ccc(NC(C)=O)cc2)cc1OC (stereo not drawn)	-6	-2%	1.6	-1	0	0.1	-1.5	-2.3
CC(=O)c1cccc(Nc2nc(-c3sc(N)nc3C)cs2)c1	-1	.	4.7	12	-4	0.1	-0.3	1.5
O=C(NCCc1ccccc1)NC(Cc1ccccc1)C(=O)O (stereo not drawn)	-5	2%	-0.8	1	-10	1.5	-0.5	0.1
O=C(/C=C/c1ccc([N+](=O)[O-])cc1)NC1CC2CCC1C2 (stereo not drawn)	.	-1%	-9.1	-42	10	0.5	-2.2	2.0
CSc1oc(-c2ccccc2)nc1S(=O)(=O)c1ccc(C)cc1	-7	64%	.	?	12	.	-3.2	4.7
Cc1ccccc1-c1nc(CS(=O)(=O)CC(=O)NC2CC2)c(C)o1	-8	-4%	-0.2	-12	-8	0.4	-2.3	-1.0
COc1ccc(CCN2CC(C(=O)NCCc3ccccc3C)CCC2=O)cc1 (stereo not drawn)	.	.	0.1	-16	12	.	1.0	.
Oc1ccc(F)c2cccnc12	-6	-2%	-0.2	1	-9	-0.2	2.3	1.4
CCCCn1nnc(NC(=O)COc2cc(C)ccc2C(C)C)n1	0	-4%	.	0	-11	-1.4	2.7	-0.1
Cc1ccc(C(=O)NNC2=Nc3cc([N+](=O)[O-])ccc3OC2)cc1	1	24%	-13	38	-4	-0.5	4.1	-2.4
Cc1onc(-c2ccccc2Cl)c1C(=O)NC(C)c1ccccc1 (stereo not drawn)	-8	-5%	0.6	0	9	0.7	2.3	-14
Cc1[nH]c2ccccc2c1/C=N\NC(=O)Cn1nnc(-c2ccccc2)n1	4	.	-4.1	-12	6	0.8	-0.9	2.0
CC1CCC2(CC1)NC(=O)N(NC(=O)c1cccc(N(C)C)c1)C2=O (stereo not drawn)	-7	.	4.1	.	.	-0.8	.	3.7
O=C(COC(=O)/C=C/c1ccccc1)NC1CC1	1	.	-0.7	.	.	-1.1	.	-0.2
O=C(O)C(Cc1ccccc1)NC(=O)C(Cc1ccccc1)NC(=O)C12CC3CC(CC(C3)C1)C2 (stereo not drawn)	-3	.	-4.9	1	-8	0.1	?	0.1
C/C(=C\c1cccs1)C(=O)c1c(C)cc(C)[nH]c1=O	-15	4%	0.5	5	3	-0.2	-2.0	-2.5
C[C@H](NC(=O)C1CCC(CNC(=O)[C@@H]2CCCN2C(=O)OC(C)(C)C)CC1)C(=O)O (stereo partly drawn)	2	-4%	3.0	5	-12	1.2	0.1	-1.1
CC(C)COC(=O)Nc1ccccc1C(=O)N1CCOCC1	-5	-1%	.	6	-19	1.9	-2.7	1.3
COc1c2ccccc2c(OC)c2ccccc12	0	3%	-2.2	-3	-1	-2.1	-2.6	-3.9
O=C(O)[C@H]1Cc2ccccc2CN1S(=O)(=O)c1ccc(F)cc1	-3	-5%	-16	-6	-2	-0.5	-2.1	-1.5
CCOC(=O)C1CCN(C(=O)CN(Cc2ccc(Cl)cc2)S(C)(=O)=O)CC1	-2	-2%	.	4	-19	2.1	3.4	-4.7
C=CCn1c(SCC(=O)NCC2CCCO2)nnc1-c1ccncc1 (stereo not drawn)	-7	.	-2.2	.	.	1.2	.	-3.8
O=C(Cn1ncc2c3ccccc3n(Cc3ccc(F)cc3)c2c1=O)N1CCN(c2ncccn2)CC1	17	?	.	14	7	-0.7	1.6	-4.3
COc1ccccc1-n1c(SCC(=O)c2ccc(O)cc2O)nc2cc([N+](=O)[O-])ccc21	-2	11%	-0.2	40	-37	0.2	2.1	-1.9
FC(F)(F)c1cnc(N2CCSCC2)c(Cl)c1	-4	-5%	-5.8	6	-6	0.3	1.3	3.9
Cc1cc(C)cc(C(=O)NC(CC(N)=O)c2ccc(NC3CCCCCC3)c([N+](=O)[O-])c2)c1 (stereo not drawn)	-12	.	1.6	-3	1	1.5	2.3	0.9
CCOC(=O)c1c(C)[nH]c(C)c1C(=O)COC(=O)/C=C/c1cccc(F)c1	1	32%	.	23	-38	0.6	4.0	1.7
COc1cc(C(=O)Nc2ccc(S(=O)(=O)Nc3ncccn3)cc2)c([N+](=O)[O-])cc1OC	.	0%	-2.0	-8	-1	-0.5	0.0	-0.2
COc1ccccc1OCC(=O)Nc1ccc(S(=O)(=O)NC(C)=O)cc1	-6	3%	.	-1	-10	0.1	-6.0	0.5
O=C(CN1CCN(Cc2ccc(F)cc2)CC1)Nc1nc2ccccc2s1	-3	.	4.9	10	51	0.2	3.0	2.5
CCOC(=O)NC1(C(F)(F)F)C(=O)NC(C)=C1C(=O)OC (stereo not drawn)	-4	0%	.	-1	0	0.2	4.0	-1.5
Cc1ccc(S(=O)(=O)Nc2cc(Cl)c(O)c3ncccc23)cc1	110*	.	0.7	-4	-10	-0.4	9.1	5.5
CCOC(=O)C1CCCN(C(=O)c2ccc(CS(=O)(=O)Cc3ccccc3C)o2)C1 (stereo not drawn)	-8	-11%	1.3	2	-31	1.5	1.6	-2.4
OCC1(Cc2ccc(Cl)cc2)CCN(CCCc2ccccc2)CC1	-5	11%	-0.8	-11	49	-0.4	-2.2	-3.4
Cc1ccc(C)c(OCC(=O)Nc2cc(C)on2)c1	.	12%	2.0	-4	-6	0.3	?	0.5
CCc1ccc(OCc2nnc(SCC(=O)NCC3CCCO3)n2C)cc1 (stereo not drawn)	-4	7%	-0.1	10	-12	0.8	0.2	2.7
Cc1nn(CCC#N)c(C)c1Oc1ccccc1O	-2	-2%	-12	-2	-4	0.0	1.6	-5.5
CCN(CC(=O)Nc1ccc(NC(C)=O)cc1)CC(=O)Nc1cccc(Cl)c1	-9	4%	-11	4	-1	-1.3	4.7	2.8
O=C(c1ccccc1)N1CCN(C2c3cccc4cccc(c34)C2NS(=O)(=O)c2ccccc2)CC1 (stereo not drawn)	.	-2%	.	-14	28	-0.7	-1.8	1.7
CC(Sc1ncn[nH]1)C(=O)NCc1ccccc1 (stereo not drawn)	.	.	-1.3	-4	-13	0.0	5.2	-2.0
CN(C(=O)C1CCCCC1)C1(C)CCS(=O)(=O)C1 (stereo not drawn)	-3	-2%	-0.6	1	-12	0.2	0.7	-5.0
CC(C)c1onc(C(=O)Nc2cccnc2Cl)c1[N+](=O)[O-]	-4	5%	2.2	25	-6	-0.2	3.4	3.1
CCOC(=O)C1(Cc2ccc(Cl)cc2)CCN(C(=O)C2CCCO2)CC1 (stereo not drawn)	-4	-8%	-0.9	21	-9	-0.3	1.3	-0.9
CCN1CCN(S(=O)(=O)c2ccc(Cl)c(C(=O)Nc3ccccc3N3CCCC3)c2)CC1	3	9%	2.8	-4	-3	-0.1	3.9	-2.7
COC(=O)C(Cc1cccc(C)n1)(c1ccccc1)c1ccccc1	6	-2%	0.9	-17	-5	0.9	-2.6	2.9

Additional results
SMILES	Beta cell apopt	Vif TR-FRET	MLL AF4-AF9 inh	Calb FLC	T cruzi repl	Bfl-1 A1 inh	RanGTP-Impb inh	LANA-H2B inh
COC(=O)Cc1ccc(NC(=S)N2CCN(CCO)CC2)cc1	-11	.	.	-23	13	-0.7	-5.3	6.5
O=C1c2cccc3c(O)ccc(c23)C(=O)N1Cc1ccccc1	-1	7%	.	100*	1	0.9	i	5.3
CCOC(=O)[C@H]1[C@H]2COc3cc(OC)ccc3[C@@H]2N2C(=O)CN(C)C(=O)[C@@]12C	2	.	3.2	.	.	-1.3	.	2.3
C/C(=N\Nc1nc(N)cc(Cl)n1)c1cccc([N+](=O)[O-])c1	1	?	.	65	-13	-1.0	-3.4	0.1
COc1ccc(NC(=O)CSc2nnc(C3CCCCC3)n2N)cc1OC	-1	2%	-4.1	23	1	-1.5	-0.9	2.6
O/N=C/c1ccn(-c2ccc(Br)cc2)c1	-3	.	3.6	-26	9	0.4	0.7	2.3
CSCCC(NC(=O)c1ccco1)C(=O)N1CCCC(C(F)(F)F)C1 (stereo not drawn)	-8	0%	-1.2	.	.	0.0	.	0.1
CC(C)CNC(=S)N1CCC(Cc2ccccc2)CC1	3	.	-1.6	18	9	-0.2	1.5	0.1
Cc1ccc(C(=O)NC2CCN(C(=O)N3CCOCC3)CC2)cc1	1	3%	.	10	9	-0.4	0.1	1.8
CCOC(=O)c1cccc(N/C=C/C(=O)c2ccc(OC)c(OC)c2)c1	-5	0%	.	-2	10	0.4	-1.7	3.9

In the list so far, 2 contain bromine.
SMILES	Beta cell apopt	Vif TR-FRET	MLL AF4-AF9 inh	Calb FLC	T cruzi repl	Bfl-1 A1 inh	RanGTP-Impb inh	LANA-H2B inh
O=C(Nc1c(S(=O)(=O)c2ccc(Cl)cc2)csc1Br)c1ccccc1Cl	0	1%	1.2	-4	1	-0.5	-4.4	4.3
O/N=C/c1ccn(-c2ccc(Br)cc2)c1	-3	.	3.6	-26	9	0.4	0.7	2.3
